Compound activity (PubChem BioAssay)
RGS16-Gao: modulates binding between human RGS16 and Galphao. 0.38% of 220,000 active. O15492+P09471. binding response (% of control), % at 10 µM. bead-based flow cytometry RGS16-Galphao binding, fluorescence; actives lie on both sides. AID 1441;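 active = below 25% or above 175%, edge rows of some plates excepted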;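 also: Galphao activated by GDP with aluminum fluoride before binding; 100% = wells without compound and 0% = beads without RGS; some results beyond the cut were filed as inactive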
Target sequence (O15492 whole entry, looked up): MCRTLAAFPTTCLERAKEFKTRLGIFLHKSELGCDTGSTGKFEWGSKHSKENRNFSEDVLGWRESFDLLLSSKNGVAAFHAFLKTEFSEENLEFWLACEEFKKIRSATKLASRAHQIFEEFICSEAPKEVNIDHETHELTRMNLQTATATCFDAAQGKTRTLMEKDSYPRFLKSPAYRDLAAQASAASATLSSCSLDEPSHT
Target sequence (P09471 whole entry, looked up): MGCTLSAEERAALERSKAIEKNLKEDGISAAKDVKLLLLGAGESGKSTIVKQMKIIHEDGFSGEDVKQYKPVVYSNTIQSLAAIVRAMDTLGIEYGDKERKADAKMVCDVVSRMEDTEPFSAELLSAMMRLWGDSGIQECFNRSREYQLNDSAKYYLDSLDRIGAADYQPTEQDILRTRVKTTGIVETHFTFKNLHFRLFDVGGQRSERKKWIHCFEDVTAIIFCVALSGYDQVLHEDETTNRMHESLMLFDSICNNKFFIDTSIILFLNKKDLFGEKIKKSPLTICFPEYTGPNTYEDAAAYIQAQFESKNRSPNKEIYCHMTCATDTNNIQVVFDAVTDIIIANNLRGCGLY
HSV replic up: HSV replication enhancement; HSV replication augmentation in cells, fold increase; maximum fold increase; 0.005% of 220,000 active;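 active = peak rise of 1.5-fold or more in the series; tested in PC3 cells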;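 also: first round at 10 µM; read as green reporter fluorescence; hits show the peak of a series up to 25 µM; 1 = signal of infected wells without compound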
PKD1 kinase inh: PKD1 (human) kinase inhibition | PKD1 kinase fluorescence polarization assay | Q15139 | AID 797 | 0.056% of 200,000 active | inhibition, %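 (about 10 µM by stock and volumes)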;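 active = inhibition of 50% or more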;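 also: controls were vehicle for no effect and a reference inhibitor for full effect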
INS promoter inh: TRM-6 insulin promoter activity inhibition; TRM-6 cells (human fetal islet line), insulin promoter-eGFP reporter, imaging; reporter expression induced with tamoxifen; inhibition, % at 2 µM; 0.9% of 130,000 active; AID 1273;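 active = inhibition above the mean plus 3 SD, with well images judged a real hit on visual review, cut at about 60% in these data, passing the limit was not always enough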
GALR2 agonist: agonists of human galanin receptor 2 (GALR2); O43603; GALR2-expressing cells, agonist activation read-out; activation, %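 (tested at 5 µM)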; 0.48% of 140,000 active; AID 803;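 active = above mean plus 3 SD of all compounds, about 5% in these data, not always enough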;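 also: 0% = vehicle buffer wells and 100% = reference agonist at full effect; tested in CHO reporter cells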
Target sequence (O43603 whole entry, looked up): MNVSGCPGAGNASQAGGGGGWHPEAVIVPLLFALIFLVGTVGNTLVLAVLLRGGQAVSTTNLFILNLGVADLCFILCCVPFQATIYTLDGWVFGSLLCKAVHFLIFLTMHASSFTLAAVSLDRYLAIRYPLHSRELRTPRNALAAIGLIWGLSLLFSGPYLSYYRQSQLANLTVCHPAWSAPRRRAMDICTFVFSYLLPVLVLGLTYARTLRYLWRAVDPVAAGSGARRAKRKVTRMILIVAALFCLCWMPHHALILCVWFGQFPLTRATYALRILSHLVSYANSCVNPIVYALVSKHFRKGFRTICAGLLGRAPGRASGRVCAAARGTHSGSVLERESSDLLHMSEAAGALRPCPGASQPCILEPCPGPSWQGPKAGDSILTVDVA
INS promoter inh cell count: recorded beside INS promoter inh, whose call it bears; normalized cell count, %; measured here: cell count, toxicity; reference of the scale not given here;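 cells exposed to compound for 48 h; stained nuclei by imaging scaled within each plate; lower means fewer cells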
HSV replic up primary fold: also measured in HSV replic up; calls as there; fold increase; compound at 10 µM; measured here: primary screen fold increase 10 uM; tested in PC3 cells;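 GFP signal in the first replicate; 1 = infected wells without compound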
* hit, by the source's call; i = inactive; . = not tested or not shown.

Start of the data: the first two entries, ahead of the listing:
SMILES	RGS16-Gao	HSV replic up	HSV replic up primary fold	PKD1 kinase inh	INS promoter inh	INS promoter inh cell count	GALR2 agonist
Cc1occc1-c1nnc(SCC(=O)c2ccc3c(c2)OCCO3)n1CC1CCCO1 (configuration not stated)	105	i	0.95	.	.	.	.
Cc1cnc(C(=O)Nc2ccccc2-n2cccc2)cn1	124	i	0.87	-7	7	61	2.5

The listing (from the top)
SMILES	RGS16-Gao	HSV replic up	HSV replic up primary fold	PKD1 kinase inh	INS promoter inh	INS promoter inh cell count	GALR2 agonist
Cc1occc1-c1nnc(SCC(=O)c2ccc3c(c2)OCCO3)n1CC1CCCO1 (configuration not stated)	105	i	0.95	.	.	.	.
Cc1cnc(C(=O)Nc2ccccc2-n2cccc2)cn1	124	i	0.87	-7	7	61	2.5
CCCCNC(=O)COC(=O)CCC(=O)c1cccs1	104	i	1	-5	.	.	-0.7
CCOc1cc(S(=O)(=O)NCc2ccc(OC)cc2)c(OCC)cc1-n1cnnn1	125	i	0.67	0	.	.	-0.6
Clc1cccc(NCc2nnc3n2CCCCC3)c1	103	i	0.97	3	50	106	.
Cc1c(C(=O)NCc2cccnc2)oc2ccc(S(=O)(=O)N3CCCCC3)cc12	90	i	0.92	5	-7	59	-1.1
COCCn1c(N)c(N(Cc2ccccc2)C(=O)C2CCCC2)c(=O)[nH]c1=O	106	i	1.1	7	19	193	.
COC(=O)c1cn(C)c2ccc(S(=O)(=O)N3CCOCC3)cc2c1=O	100	i	0.99	-1	-30	115	.
CSCCC(NS(=O)(=O)c1c(Cl)cccc1Cl)C(=O)O (configuration not stated)	98	i	1.1	-3	.	.	.
O=C(C1=C[C@H](c2ccc3c(c2)OCO3)C[C@H](OCc2ccc(CO)cc2)O1)N1CCCCCCC1	106	.	.	4	.	.	.
CCOc1ccc(-c2ccc(SCC(=O)Nc3nnc(C)s3)nn2)cc1	100	i	0.91	-8	-25	116	.
CCN(CCCNC(=O)C1c2ccccc2C(=O)N(CCOC)C1c1ccc(F)cc1)Cc1ccccc1 (configuration not stated)	108	i	1	-9	-67	85	.
Cc1c(C(=O)O)oc2ccc(S(=O)(=O)NCCC3=CCCCC3)cc12	107	i	1.1	-1	-36	131	0.3
NS(=O)(=O)c1ccc(CCNC(=O)CN2CCCCCC2)cc1	99	i	0.96	-1	-7	115	.
N=C(N)SCc1ccc(Cl)cc1Cl	107	i	0.71	0	-31	87	-0.8
Cc1ccc(-c2nc(CSCC(=O)NCc3cccnc3)c(C)o2)cc1	95	i	1.1	7	-7	52	-5.1
CCCCCCn1c(CN2CCN(C(=O)OCC)CC2)nc2c1c(=O)n(C)c(=O)n2C	.	i	0.93	-3	69	139	-0.4
O=C(N/C=C/n1cnc2cc(C(F)(F)F)ccc21)c1ccccc1	100	i	0.93	5	-22	180	.
COCCCNC(=O)CN(CCc1ccccc1)S(=O)(=O)c1ccc(OC)cc1	100	i	0.87	-4	33	105	.
COCc1nnc(SCC(=O)NCc2ccccc2)n1-c1ccccc1	99	i	0.89	-1	2	105	-0.2
CCCCNC(=S)NNC(=O)c1csc2c1CCC(C)C2 (configuration not stated)	101	i	1.1	-6	14	84	-2.8
CCOc1ccccc1C1CC(c2ccccc2)Nc2nc(N)nn21 (configuration not stated)	102	i	1.1	-11	.	.	-3.7
COc1ccccc1NC(=O)c1ccc([N+](=O)[O-])cc1[N+](=O)[O-]	100	i	0.96	-6	-10	98	.
O=C(CSc1nnc2scc(-c3ccccc3)n12)N1CCCc2ccccc21	26	i	1.3	1	.	.	-1.3
O=C(Nc1sc2c(c1C(=O)NC1CCCCC1)CCC2)c1ccco1	97	i	0.96	5	62	125	1.4
O=C(CCS(=O)(=O)c1cccc2nonc12)NCCc1ccccc1	94	i	0.83	2	.	.	-1.0
Cc1csc(NC(=O)/C=C/c2ccco2)n1	100	i	1.1	9	.	.	-0.5
Cc1cc2cc(CN(Cc3ccc4c(c3)OCO4)C(=O)c3cnccn3)c3nnnn3c2cc1C	110	i	0.95	0	-3	73	-2.5
COc1ccc(-n2cc(C(=O)O)c3ccccc3c2=O)cc1	104	i	0.9	0	-76	114	-0.1
O=C(c1cc2c(s1)-c1ccccc1OC2)N1CCN(c2ccccn2)CC1	102	i	1.3	3	.	.	-2.5

An excerpt from further up, for reference:
SMILES	RGS16-Gao	HSV replic up	HSV replic up primary fold	PKD1 kinase inh	INS promoter inh	INS promoter inh cell count	GALR2 agonist
N=C(N)SCc1ccc(Cl)cc1Cl	107	i	0.71	0	-31	87	-0.8
Cc1ccc(-c2nc(CSCC(=O)NCc3cccnc3)c(C)o2)cc1	95	i	1.1	7	-7	52	-5.1
CCCCCCn1c(CN2CCN(C(=O)OCC)CC2)nc2c1c(=O)n(C)c(=O)n2C	.	i	0.93	-3	69	139	-0.4
O=C(N/C=C/n1cnc2cc(C(F)(F)F)ccc21)c1ccccc1	100	i	0.93	5	-22	180	.
COCCCNC(=O)CN(CCc1ccccc1)S(=O)(=O)c1ccc(OC)cc1	100	i	0.87	-4	33	105	.
COCc1nnc(SCC(=O)NCc2ccccc2)n1-c1ccccc1	99	i	0.89	-1	2	105	-0.2
CCCCNC(=S)NNC(=O)c1csc2c1CCC(C)C2 (configuration not stated)	101	i	1.1	-6	14	84	-2.8
CCOc1ccccc1C1CC(c2ccccc2)Nc2nc(N)nn21 (configuration not stated)	102	i	1.1	-11	.	.	-3.7
COc1ccccc1NC(=O)c1ccc([N+](=O)[O-])cc1[N+](=O)[O-]	100	i	0.96	-6	-10	98	.
O=C(CSc1nnc2scc(-c3ccccc3)n12)N1CCCc2ccccc21	26	i	1.3	1	.	.	-1.3
O=C(Nc1sc2c(c1C(=O)NC1CCCCC1)CCC2)c1ccco1	97	i	0.96	5	62	125	1.4
O=C(CCS(=O)(=O)c1cccc2nonc12)NCCc1ccccc1	94	i	0.83	2	.	.	-1.0
Cc1csc(NC(=O)/C=C/c2ccco2)n1	100	i	1.1	9	.	.	-0.5
Cc1cc2cc(CN(Cc3ccc4c(c3)OCO4)C(=O)c3cnccn3)c3nnnn3c2cc1C	110	i	0.95	0	-3	73	-2.5
COc1ccc(-n2cc(C(=O)O)c3ccccc3c2=O)cc1	104	i	0.9	0	-76	114	-0.1
O=C(c1cc2c(s1)-c1ccccc1OC2)N1CCN(c2ccccn2)CC1	102	i	1.3	3	.	.	-2.5

The list continues.
SMILES	RGS16-Gao	HSV replic up	HSV replic up primary fold	PKD1 kinase inh	INS promoter inh	INS promoter inh cell count	GALR2 agonist
COc1ccccc1OC(=O)c1ccc(S(=O)(=O)N(C)C)cc1	98	i	0.83	-5	-33	100	-0.6
O=C(Nc1ccc2nc(-c3cccnc3)[nH]c2c1)C12CC3CC(CC(C3)C1)C2	101	i	0.73	-6	25	124	-2.8
CCCn1[nH]cc(SC)c(=O)c1=O	127	i	1	-9	19	107	-1.4
c1ccc(Nc2nc(-c3ccccn3)cs2)cc1	102	i	0.72	-1	3	127	-2.0
CN(C)c1cc(-c2ccc(Br)cc2)oc(=O)c1Cl	96	i	0.97	.	.	.	.
Cc1ccc(OCc2nnc(SCC(N)=O)n2N)cc1	110	i	0.92	-3	.	.	.
COC(=O)c1ccc(Oc2nc(Nc3ccc(C)c(C)c3)nc(N(C)C)n2)cc1	120	i	1.1	-2	-21	149	-4.0
O=C(Cn1cnc2ccccc2c1=O)Nc1ccc2c(c1)CCC2	103	i	0.97	-3	.	.	-0.9
Cc1c(C#N)c(NC(=O)C(C)C)n(Cc2ccccc2)c1C	99	i	1.1	-1	-40	106	.
O=C(Cc1ccccc1[N+](=O)[O-])NCCCN1CCOCC1	105	i	0.98	2	.	.	.
COC(=O)c1c(NC(=O)CSc2nnc(-c3cccnc3)n2Cc2ccco2)sc(C)c1C	98	i	0.87	-3	-39	43	-0.2
O=C1CN(C(=O)c2ccccc2F)c2ccccc2N1	103	i	0.87	3	36	84	-2.0
c1ccc2c(c1)ncn2CCCOc1ccc2c(c1)CCC2	94	i	0.83	1	-66	36	-0.9
Cc1cc(NCc2ccccc2)nc2ccccc12	104	i	0.86	4	-197	75	-0.6
CC(=O)Nc1ccc2c(c1)N(C(C)=O)c1ccccc1CC2	77	i	0.89	0	67	60	.
CCOc1ccc(S(=O)(=O)N(C)c2ccc(OCC(=O)NCc3ccco3)cc2)cc1	104	i	0.97	0	-3	85	-0.7
O=C1NC2CCCCC2NC1CC(=O)N1CCN(c2ccccc2)CC1 (configuration not stated)	.	.	.	0	-3	195	-1.6
COC(=O)[C@H](CCSC)NC(=O)Nc1ccc(S(N)(=O)=O)cc1	104	i	1	.	.	.	.
NC(=O)c1cn(-c2ccccc2)nc1-c1cccnc1	77	i	0.96	-5	7	124	-1.7
Cc1ccc(S(=O)(=O)Nc2ccc3ccccc3n2)cc1	100	i	1	.	.	.	.
O=[N+]([O-])c1ccccc1Nc1ccccc1	103	i	1.1	-2	.	.	.
O/N=C(\Cc1cscn1)c1ccc(O)cc1O	98	i	0.96	-7	-15	100	-2.6
COc1ccc(CCNC(=O)CN(c2ccccc2OC)S(C)(=O)=O)cc1OC	107	i	0.97	-1	-9	98	-2.4
Cc1ccc(S(=O)(=O)NCCc2nnc3ccc(NCCCOC(C)C)nn23)cc1	97	i	0.98	7	.	.	.
CCn1c(=O)c2cc(C(=O)NCc3cccs3)sc2c2ccccc21	100	i	0.93	-5	.	.	.
O=C(CCc1ccccc1)NCC1OCCc2ccccc21 (configuration not stated)	97	i	1	-8	.	.	.
Cc1csc(NC(=O)C2CCCCC2C(=O)O)n1 (configuration not stated)	116	i	0.92	-11	-36	113	-1.2
O=C(Nc1ccc(Cl)cc1)Nc1ccccc1NS(=O)(=O)c1cccs1	105	i	0.88	-3	54	96	-1.2
COc1ccc(NC(=S)NC2CCN(Cc3ccccc3)CC2)cc1OC	102	i	0.87	2	.	.	.
O=c1cc(CN2CCOCC2)nc(C2CC2)[nH]1	100	i	0.83	1	-28	54	-2.1
CCC(C)(C)n1nnnc1C(c1cc(OC)ccc1OC)N1CCC(C(N)=O)CC1 (configuration not stated)	104	i	1.1	-4	42	54	1.3
Cc1csc(NC(=O)c2nc(-c3ccccc3)n(-c3ccccc3)n2)n1	103	i	0.85	-8	.	.	-0.3
CC(=O)NC(CC(=O)NC1CCCCC1)c1ccccc1 (configuration not stated)	97	i	1	-4	47	74	-3.5
COc1ccc(C2=NN(c3nc(C(=O)O)cs3)C(O)(C(F)(F)F)C2)c(OC)c1 (configuration not stated)	101	i	0.79	-5	.	.	.
CC(=O)NCCc1cc2cc(C)c(C)cc2[nH]c1=O	100	.	.	-6	-55	118	0.5
COc1cccc(NC(=O)c2cc([N+](=O)[O-])ccc2N2CCN(C)CC2)c1	110	i	1	1	10	159	.
CCOC(=O)c1sc(NC(=O)CSc2ncn[nH]2)c(C#N)c1C	100	i	0.71	-12	-81	122	-2.0
CCCn1cc(S(=O)(=O)CC(=O)Nc2ccc(OCC)cc2)c2ccccc21	107	i	0.78	-9	.	.	-0.3
CNC(=O)c1nnc(Cc2ccc(F)cc2)o1	100	i	1	-15	.	.	.
CCOC(=O)N1CCC(N2C(=O)c3ccccc3C2Nc2ccc3c(C)cc(=O)oc3c2)CC1 (configuration not stated)	101	i	1.2	-13	.	.	0.8
O=C(NCc1ccc(Cl)cc1)c1ccc(CNc2c(N3CCCC3)c(=O)c2=O)cc1	122	i	0.98	.	.	.	.
Cc1ccc(C)c(C(=O)CN2C3=NCCCN3c3ccccc32)c1	103	i	0.96	-12	0	75	-0.6
